# TRPML1 inh = qHTS for Inhibitors of the Human Mucolipin Transient Receptor Potential 1 (TRPML1) | TRPML1-inducible cells, Ca2+ dye fluorescence, FDSS; active compounds read low; inhibition of EC80 agonist-evoked calcium signal | 0.02% of 390,000 active | AID 624415, 2012 | activity change, negative = inhibition, % (concentration not given with the values); in the data active means activity change below about -50%; inconclusive means about -30% to -50%; inactive means above about -30%;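 also: stimulus is agonist 54-4 at its EC80 concentration; % is scaled to controls: 0 for no effect and ±100 for the full control effect; the text of the record puts the active cut at -80%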
# Target sequence (Q9GZU1 whole entry, looked up): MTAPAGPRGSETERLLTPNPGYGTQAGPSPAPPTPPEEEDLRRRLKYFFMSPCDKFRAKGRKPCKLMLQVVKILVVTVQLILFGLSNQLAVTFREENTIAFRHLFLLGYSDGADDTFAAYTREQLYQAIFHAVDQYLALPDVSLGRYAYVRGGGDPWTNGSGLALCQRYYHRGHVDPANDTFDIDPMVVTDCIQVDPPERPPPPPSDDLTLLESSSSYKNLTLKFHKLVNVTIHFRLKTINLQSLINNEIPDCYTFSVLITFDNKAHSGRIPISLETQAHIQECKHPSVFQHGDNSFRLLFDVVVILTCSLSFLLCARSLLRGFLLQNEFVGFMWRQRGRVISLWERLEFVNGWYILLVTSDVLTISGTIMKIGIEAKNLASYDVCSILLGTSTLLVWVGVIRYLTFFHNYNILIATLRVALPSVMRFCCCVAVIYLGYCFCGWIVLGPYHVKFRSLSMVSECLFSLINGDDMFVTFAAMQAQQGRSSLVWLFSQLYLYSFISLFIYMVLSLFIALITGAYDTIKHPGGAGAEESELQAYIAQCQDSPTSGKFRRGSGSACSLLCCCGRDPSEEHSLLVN
#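 Calcium fluorescence in TRPML1-DL cells induced overnight with Tet: a 110 s read after compound pin addition, then a 110 s antagonist read after challenge with 54-4 at 4 uM final (EC80).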
# Sfp inh = qHTS Assay for Inhibitors of Bacillus subtilis Sfp phosphopantetheinyl transferase (PPTase); 4'-phosphopantetheinyl transferase ffp (Bacillus subtilis), Q9F4F7; Biochemical Sfp PPTase activity, qHTS; Potency, µM, without a hit: max response, negative = inhibition, actives largely listed as inhibitors; 3.5% of 310,000 active; AID 1490, 2009; active = well fitted inhibition curve with a large enough effect; inconclusive = small, poorly fitted or top-dose-only effect, or another doubt; inactive = no such curve, though single readings can be large or run the other way;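 also: the enzyme is Sfp with the accession as filed and its product quenches rhodamine fluorescence; potency is read from the fitted curve at half-maximal effect; 0% = enzyme reaction without inhibitor and -100% = no enzyme wells; top concentration of the series not given in the record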
#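 With Hepes-Na pH 7.6 buffer containing 10 mM MgCl2, Sfp (15 nM) modified BHQ-2-YbbR (12.5 uM) using rhodamine-CoA (5 uM). Two reads 30 minutes apart at 525/598 nm yielded each well's rate.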
# PINK1 expr mod = A Quantitative High throughput Screen to Identify Chemical Modulators of PINK1 Expression; PINK1 immunofluorescence, high-content cytometry, 24 h; Potency, µM (series often up to 76.6 µM), inactives show at the top dose activation (PINK1 increase), hits mostly activators; 0.2% of 410,000 active; active = well fitted activation curve with a large enough effect; inconclusive = small, poorly fitted or top-dose-only effect; inactive = flat fitted curve, though single readings scatter; cell line not stated here;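 also: potency is read from the fitted curve at half-maximal effect; % of control where 0% means no effect; nearly all actives have a fitted effect of over 65% in size; a mitochondrial uncoupler was the plate control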
#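 Fluorescence from anti-PINK1 antibody, together with nuclear and cell stains, was scanned on a laser-scanning cytometer. Before staining, stable-line cells were incubated 24 hours with compounds at 5 concentrations; primary antibody 12 h at 10 degrees C.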
# Menin MLL FP FL = qHTS Assay for Inhibitors Targeting the Menin-MLL Interaction in MLL Related Leukemias: Competition With Fluorescein Labeled MLL-derived Peptide | Fluorescence polarization, fluorescein-MLL peptide displacement from menin | FP activity change, % at 61.4 µM | 290,000 tested, under 10 active | AID 1766, 2009; inconclusive = falling polarisation curve, or a change in total fluorescence; inactive = total fluorescence flat and polarisation flat or rising; no compound was filed as active; the % refers to the polarisation; negative = inhibition;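 also: % of control where 0% means no effect; inhibitors lower the polarisation; unlabelled MLL peptide was the positive control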
# TRPV1 potentiator = HTS Assay for Compounds that Act as Potentiators of the Vanilloid Receptor 1. Transient receptor potential cation channel subfamily V member 1 (Homo sapiens), Q8NER1. TRPV1-expressing cells, Fluo-8 calcium influx, capsaicin EC20 potentiation; host cell line not named in the record; control for the full effect not named in the record. potentiation, % at 8.33 µM. 0.02% of 320,000 active. AID 540277, 2011; active means potentiation above 80%; inconclusive means 30% to 80%; inactive means below 30%; also: 0% is about no effect
#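 TRPV1-expressing cells were cultured overnight at 35.5C and loaded with Fluo-8 calcium dye for 40 to 90 min at room temperature. After a 10 s baseline, compound was added and calcium influx was read kinetically for 3 min (ex 480/em 520 nm).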
# ClpP mod = qHTS Assay for Activators of ClpP. ATP-dependent Clp protease proteolytic subunit (Bacillus subtilis (strain 168)), P80244. purified B. subtilis ClpP, FRET peptide cleavage, 20 min. Potency, µM (highest dose often 57.5 µM), inactives show at the top dose activity change, negative = active. 1.9% of 340,000 active. AID 651965, 2013; active = well fitted falling curve with a large enough effect; inconclusive = small, poorly fitted or top-dose-only effect; inactive = no such curve, though single readings can be large or run the other way; also: potency is read from the fitted curve at half-maximal effect; the source files actives as falling curves though it sought activators and does not explain the sign; nearly all actives have a fitted effect of over 65% in size; many hits overshoot -100%
# Target sequence (P80244 whole entry, looked up): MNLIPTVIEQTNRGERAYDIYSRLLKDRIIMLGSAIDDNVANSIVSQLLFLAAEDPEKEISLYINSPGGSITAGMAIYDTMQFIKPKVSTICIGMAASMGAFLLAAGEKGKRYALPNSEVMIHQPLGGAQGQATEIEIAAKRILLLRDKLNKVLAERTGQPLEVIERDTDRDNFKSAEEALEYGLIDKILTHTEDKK
#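 Buffer: 100 mM Tris/HCl pH8, 100 mM KCl, 0.05% low protease BSA, 2.5% glycerol, 0.01% Tween-20. ClpP 10 microg/mL final; 20 min RT; delta FRET normalized to ADEP and DMSO controls.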
# TRPML1 ag = qHTS for Agonists of the Human Mucolipin Transient Receptor Potential 1 (TRPML1); Mucolipin-1 (Homo sapiens), Q9GZU1; TRPML1-expressing cells, Ca2+ dye fluorescence, FDSS; host cell line not named in the record; reference of the full effect not given here; activation, % (no concentration beside the values); 0.12% of 410,000 active; AID 624414, 2012; in the data active = activation above about 50%; inconclusive = about 30% to 50%; inactive = below about 30%; also: 0% is about no effect; the text of the record puts the active cut at 80%
#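 Agonist activity was taken from a 110 s kinetic Ca2+ dye read on the FDSS after pinning compounds onto TRPML1-DL cells. The cells were seeded at 1,500/well with Tet inducer, incubated about 16 h, then dye-loaded at room temperature.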
# * marks the source's active call; other numbers are inactive results; ? = inconclusive; · = no result given; & = joins results of further samples; [ ] = dose if it differs, or a comment.
# Values run as follows: TRPML1 inh	Sfp inh	PINK1 expr mod	Menin MLL FP FL	TRPV1 potentiator	ClpP mod	TRPML1 ag
- COc1ccc(C2C3=C(CCCC3=O)Nc3ccc4ncccc4c32)cc1OC (centres undefined)
  16	-18%	4.2%	7.0	?	6.3µM*	-1.1
- Cc1c(C(=O)NCc2cccnc2)sc2nc(-c3ccc(F)cc3)cn12
  6	10%	1.2%	-1.7	4	1.3%	0.6
- NC(=O)c1ccc(NC(=O)c2cccc3c2OCCCO3)cc1
  -6	19%	1.3%	-2.4	-2	·	-0.1
- O=C(C1CCN(S(=O)(=O)c2cc(Cl)ccc2Cl)CC1)N1CCCC1
  15	6%	-2.9%	·	-25	·	0.0
- CC1(C)C(=O)Nc2ccccc2N1C(=O)COC(=O)COc1ccc(C#N)cc1
  2	8%	-0.9%	·	7	-2.1%	1.1
- CC(=O)Nc1ccc(N/C=C/C(=O)c2ccc(Br)cc2)cc1
  1	8%	?	-0.5	4	0.1%	0.4
- CCOc1ccc(-c2cc(-c3nc(-c4ccc(OC)c(OC)c4)no3)[nH]n2)cc1
  -10	·	0.3%	·	·	-12%	0.2
- Cc1ccc(-n2cc3c(-c4cccc(Br)c4)nnc(C)c3n2)cc1
  57	-10%	?	5.3	-10	-4.9%	3.8
- COCCNC(=O)CSc1nc2ccccc2c2nc(C)nn12
  28	6%	1.2%	0.2	0	2.0%	-0.7
- O=C(c1cc2nc(-c3ccccc3)cc(C(F)(F)F)n2n1)N1CCN2CCCC2C1 (centres undefined)
  -21	3%	2.8%	-1.3	-3	-2.8%	-0.6
- COc1ccc(OC)c(NC(=O)c2cc(-c3cc(C)ccc3O)n[nH]2)c1
  8	12%	-1.5%	-0.6	-1	0.5%	-0.3
- Cc1ccc(C)c(NC(=O)CC2NCCNC2=O)c1 (centres undefined)
  -17	·	1.8%	·	·	-2.7%	0.9
- O=C(NCc1cccnc1)c1ccc(COc2cccc3ccccc23)o1
  -2	?	2.4%	2.7	-5	-0.5%	-1.0
- Cc1ccc(-c2ccc3nnc(SCC(=O)NCC4CCCO4)n3n2)cc1 (centres undefined)
  ·	10%	1.2%	-1.1	?	-5.4%	·
- COc1ccc(C2=NNC(c3cccnc3)=Nc3ccccc32)cc1
  -2	15%	0.5%	-0.4	8	·	1.2
- O=C(NN1C(=O)c2ccccc2C1=O)C1C2CCCCC21 (centres undefined)
  46	-6%	3.0%	2.3	2	-1.7%	1.3
- COc1cc2ccccc2cc1C(=O)NC(=S)Nc1cccc(C(=O)O)c1C
  6	5%	0.0%	1.2	2	·	0.8
- N#Cc1nc(-c2cccs2)oc1NCc1ccc(Cl)cc1
  45	-23%	11%	-2.6	2	?	2.5
- Cc1cc(N2CCN(C(=O)c3cccs3)CC2)c(F)cc1[N+](=O)[O-]
  1	6%	0.5%	1.0	?	-0.4%	0.7
- CCN(CC(=O)Nc1cc(Cl)ccc1C)C(=O)CSCc1ccc(C)cc1
  -10	·	4.9%	·	3	-16%	1.0

# A different layout for part of the listing above:
structure: CC(=O)Nc1ccc(N/C=C/C(=O)c2ccc(Br)cc2)cc1
  TRPML1 inh: 1
  Sfp inh: 8%
  PINK1 expr mod: ?
  Menin MLL FP FL: -0.5
  TRPV1 potentiator: 4
  ClpP mod: 0.1%
  TRPML1 ag: 0.4

structure: NC(=O)c1ccc(NC(=O)c2cccc3c2OCCCO3)cc1
  TRPML1 inh: -6
  Sfp inh: 19%
  PINK1 expr mod: 1.3%
  Menin MLL FP FL: -2.4
  TRPV1 potentiator: -2
  ClpP mod: ·
  TRPML1 ag: -0.1

structure: COc1ccc(C2C3=C(CCCC3=O)Nc3ccc4ncccc4c32)cc1OC (centres undefined)
  TRPML1 inh: 16
  Sfp inh: -18%
  PINK1 expr mod: 4.2%
  Menin MLL FP FL: 7.0
  TRPV1 potentiator: ?
  ClpP mod: 6.3µM*
  TRPML1 ag: -1.1

structure: O=C(C1CCN(S(=O)(=O)c2cc(Cl)ccc2Cl)CC1)N1CCCC1
  TRPML1 inh: 15
  Sfp inh: 6%
  PINK1 expr mod: -2.9%
  Menin MLL FP FL: ·
  TRPV1 potentiator: -25
  ClpP mod: ·
  TRPML1 ag: 0.0

# (listing goes on)
# Values run as follows: TRPML1 inh	Sfp inh	PINK1 expr mod	Menin MLL FP FL	TRPV1 potentiator	ClpP mod	TRPML1 ag
- CC(C)(C)n1nnnc1C(c1cccc(C(F)(F)F)c1)N1CCC(O)CC1 (centres undefined)
  11	10%	0.9%	6.5	10	2.3%	-0.1
- CCOC(=O)C1CCN(C(=O)c2ccccc2)C(CC)C1=O (centres undefined)
  11	·	-2.8%	·	·	-2.6%	1.0
- CC(C)c1ccc(N(CC(=O)NCC2CCCO2)C(=O)CCC(=O)Nc2nccs2)cc1 (centres undefined)
  0	22%	0.9%	1.7	5	·	-0.1
- Cc1ccc2nc(SC(C(=O)Nc3ccc(F)cc3)c3ccccc3)[nH]c2c1 (centres undefined)
  9	6%	4.1%	-2.0	-6	-7.4%	0.9
- O=c1cc(O)c2sc(Nc3ccc(F)c(Cl)c3)nc2[nH]1
  -1	-100%	7.7%	38[activator]	2	·	-0.5
- CC1=CC(C)(C(Cl)Cl)C(C)=CC1=O (centres undefined)
  1	7%	-0.5%[38.3 µM]	10	23	0.1%	-0.6
- CN1c2ccccc2C(C)(C)C12C=Nc1c(cc(N3CCOCC3)c3ccccc13)O2 (centres undefined)
  -1	-8%	-1.4%	8.0	4	28µM*	-0.1
- Cc1ccc(CNC(=O)CN(C2CCCCC2)S(C)(=O)=O)cc1
  -3	2%	-0.3%	5.0	29	0.2%	-1.0
- Cc1cc(C)c(OCC(=O)OCC(=O)N2CCc3ccccc3C2)c(C)c1
  -8	·	-1.3%	·	-2	·	4.6
- CCOC(=O)C1=C(C)NC(=S)N(C(C)=O)C1c1ccc(Cl)cc1 (centres undefined)
  11	0%	-3.7%[38.3 µM]	1.2	-1	-1.6%	1.0
- COc1ccc(CN2CCCC(C(=O)c3ccc(Cl)cc3)C2)cc1Cn1cncn1 (centres undefined)
  4	1%	-1.7%	1.9	18	-1.2%	3.2
- O=C(CCC(NC(=O)OCc1ccccc1)C(=O)OCC(=O)N1CCCCC1)OCC(=O)N1CCCCC1 (centres undefined)
  -13	11%	-3.6%	0.2	-11	1.8%	-0.9
- COc1ccc(C(=O)Nc2ccc(CN3CCOCC3)cc2)cc1Br
  -6	20%	1.2%	3.5	-43	-3.2%	0.4
- O=Cc1cn(-c2ccccc2)nc1-c1cccnc1
  11	19%	-0.2%	-5.9	-7	-1.5%	-0.5
- O=C(CCC(=O)N1CCN(c2ccc(F)cc2)CC1)c1ccc(F)cc1
  -3	6%	-3.0%	-1.6	-24	·	0.9
- CCc1nc(N=Nc2c(O)[nH]c3ccccc23)c2c3c(sc2n1)CCC3
  -1	22%	8.8%	7.7	-7	2.1%	0.3
- Cc1cccc(-n2ncc(C(=O)NCc3ccc4c(c3)OCO4)c2C2CCN(C(=O)OC(C)(C)C)CC2)c1
  -11	·	-1.1%	·	·	0.1%	0.4
- O=C(Nc1ccccc1Cl)N1CCN(c2ccccn2)CC1
  4	20%	5.3%[38.3 µM]	0.4	-5	22µM*	-0.5
- Cc1cc(C)n2nc(SCc3ccccc3)nc2n1
  7	1%	0.7%	6.6	-4	-13%	0.8
- NS(=O)(=O)c1ccc(-c2ccc(C=NC3CCS(=O)(=O)C3)o2)cc1 (centres undefined)
  -5	7%	2.3%[38.3 µM]	-1.2	-13	?	-0.2
- COCCN(C(=S)Nc1ccc(OC)c(Cl)c1)C1CCN(C(C)C)CC1
  -2	40µM*	-1.0%	-7.1	5	·	1.3
- O=C(NNC(=S)NC1CCCCC1)c1cccs1
  -6	9%	1.7%	0.5	-3	17%	1.2
- Cc1oc2ccc(OCc3ccccc3F)cc2c1C(=O)O
  -16	14%	-1.7%	3.3	25	-13%	-0.5
- COc1ccc2nc(Nc3nc(-c4cc5ccccc5oc4=O)cs3)sc2c1
  -1	-2%	8.0%	-3.5	21	0.5%	1.2
- Cc1cccc(NC(=S)NC2CC3CCCC(C2)N3CC(C)C)c1C (centres undefined)
  3	1%	-2.3%	-1.5	10	0.2%	-0.2
- CCOc1ccc(N2C(=O)CC(NCc3ccc(F)cc3)C2=O)cc1 (centres undefined)
  0	-2%	-1.6%	0.6	0	-1.4%	-0.2
- CCNc1nc(C)nc2c1cnn2C
  -10	·	0.7%	·	·	28µM*	0.2
- CC(OC(=O)C1CC1)C(=O)Nc1cc(C(F)(F)F)ccc1Cl (centres undefined)
  -2	17%	2.7%	-0.8	-30	-0.5%	-2.0
- CCC1=C(OC(=O)N(CC)CC)N2C(=O)OC(=NCC3CC3)[C@]2(Cc2ccccc2)[C@H]2C1=CC[C@H]1C(=O)N(CC(=O)OC)C(=O)[C@H]12
  -12	28%&-1%	1.9%	-0.6&-4.5	-28	-6.9%	0.0
- CC(C)(C)C1CCc2oc3ccc(NS(=O)(=O)c4ccc(C(=O)O)cc4)cc3c2C1 (centres undefined)
  -8	·	0.4%	·	·	-0.2%	-0.9
- Cc1ccc([N+](=O)[O-])c(OCCCN2CCC(Cc3ccccc3)CC2)c1
  36	·	1.5%	·	·	0.2%	2.0
- CCOC(=O)N1CCN(C(=O)C[C@@H]2C[C@@]3(C(=O)OCC)CCC=C3N(Cc3ccccc3)C2=O)CC1
  ·	·	4.9%	·	·	-1.3%	-0.7
- FC(F)(F)c1ccccc1Cc1c(-c2ccc(Cl)cc2)nc2ccc(Br)cn12
  ·	·	5.8%	·	·	-9.8%	-0.1
- C=CCn1c(=O)c(C(=O)NCc2ccccc2Cl)c(O)c2ccccc21
  -11	0%	15%	0.0	-1	?	0.2
- COC(=O)CNc1c(-c2ccccc2)nc2ccc(Br)cn12
  3	-6%	2.9%&0.5%	7.2	6	-1.5%&-1.0%	1.6&-1.0

# Screening data (PubChem BioAssay)
